Screens (PubChem)
Beta apoptosis – beta cell apoptosis inhibition. INS-1E cytokine-induced death, ATP luminescence, 48 h; percent of positive-control rescue, neutral wells zero. protection from apoptosis, % (test concentration not listed). 300,000 compounds, 0.8% hits;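 active means all replicates at 75% or more, or half of them and the mean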;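 further: 0% = cytokine-treated negative control wells and 100% = positive control rescue; higher means more ATP so stronger rescue from cytokine killing; wells of about 40 µL received 100 nL stock; the first replicate is given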
E coli growth – inhibitors of Escherichia coli growth; OD600, 23 h; hits give low values; OD600 absorbance (no concentration beside the values); 330,000 compounds, 0.21% hits; AID 1053175;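 active means OD600 absorbance below the run mean of sample wells minus 3.6 SD, in any replicate, cut at about 0.56 in these data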;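 further: stock transfer was 300 nL into about 60 µL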
AF4-AF9 inh – inhibitors of human MLL-AF4/AF9 interaction | P42568 | 350,000 compounds, 0.47% hits | inhibition, % at 10 µM | AlphaScreen, biotin-AF4 peptide binding to FLAG-AF9;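 active means every replicate reaching a set inhibition limit, whatever the replicate mean, cut at about 25% in these data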;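 further: 0% = plate neutral control median and 100% = total signal loss; the record names both 10 and 1 µM as test concentration; the first replicate is given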
Target sequence (P42568 whole entry, looked up): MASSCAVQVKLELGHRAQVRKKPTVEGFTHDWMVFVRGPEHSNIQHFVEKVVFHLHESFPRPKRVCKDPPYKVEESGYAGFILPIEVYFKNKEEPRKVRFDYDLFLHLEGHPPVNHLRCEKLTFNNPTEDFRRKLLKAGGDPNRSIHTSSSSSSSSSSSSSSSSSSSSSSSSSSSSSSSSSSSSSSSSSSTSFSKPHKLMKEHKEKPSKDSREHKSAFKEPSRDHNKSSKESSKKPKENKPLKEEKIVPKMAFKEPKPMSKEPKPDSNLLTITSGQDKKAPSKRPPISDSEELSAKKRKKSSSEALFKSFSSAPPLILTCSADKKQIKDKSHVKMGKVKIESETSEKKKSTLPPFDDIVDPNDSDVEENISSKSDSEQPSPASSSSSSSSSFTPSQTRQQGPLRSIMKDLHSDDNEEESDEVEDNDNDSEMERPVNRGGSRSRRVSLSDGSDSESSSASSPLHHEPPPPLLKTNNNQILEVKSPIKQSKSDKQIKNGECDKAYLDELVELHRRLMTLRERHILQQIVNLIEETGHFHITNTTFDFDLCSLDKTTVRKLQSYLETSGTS
T cruzi inh – blocks replication of Trypanosoma cruzi; inhibition, % (concentration not given with the values); 300,000 compounds, 1.4% hits; T. cruzi beta-gal in NIH3T3, luminescence, 90 h;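 active means mean inhibition across valid replicates above about 55%, limit read from the data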;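 further: signal also drops with host cell toxicity which is not excluded here; 0% = plate median of DMSO wells and 100% = zero luminescence signal; higher percent means less beta-gal luminescence so fewer parasites; stock transfer was 50 nL into about 50 µL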
FGF22 binding – FGF22 (human) thermal shift binding; Q9HCT0; recombinant FGF22 thermal shift, SYPRO orange fluorescence; percent of sucrose octasulfate shift, DMSO zero; calls only at 9.99 µM; 340,000 compounds, 1.5% hits; AID 651658;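 active means melting point raised past a set limit in the mean and every replicate; three in four hits are not shown here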
Ecoli rRNA inh – inhibitors of bacterial rRNA selective over humanized ribosomes | 350,000 compounds, 1.6% hits | E. coli WT GFP vs humanized-ribosome RFP mutants, fluorescence, 24 h; hits give low values; DMSO median 0, no signal -100 | AID 720706 | GFP signal change (wild-type ribosome), % (test concentration not listed);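 active means significant combined selectivity score with lowered wild-type GFP, culture density cut under 30%, mutant RFP and density less affected; inactive means any of these conditions unmet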; further: one replicate is shown; some compounds called inactive have numbers as strong as hits
UCH37 inh – blocks the human deubiquitinase UCH37; purified proteasome/UCH37, Ub-AMC cleavage fluorescence; inhibition, % (concentration not given with the values); 330,000 compounds, 0.33% hits; AID 588478;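 active means mean of two replicates above 20%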;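 further: 0% = compound-free wells with enzyme and 100% = wells lacking proteasome; stock transfer was 100 nL into about 20 µL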
Target sequence (Q9Y5K5 whole entry, looked up): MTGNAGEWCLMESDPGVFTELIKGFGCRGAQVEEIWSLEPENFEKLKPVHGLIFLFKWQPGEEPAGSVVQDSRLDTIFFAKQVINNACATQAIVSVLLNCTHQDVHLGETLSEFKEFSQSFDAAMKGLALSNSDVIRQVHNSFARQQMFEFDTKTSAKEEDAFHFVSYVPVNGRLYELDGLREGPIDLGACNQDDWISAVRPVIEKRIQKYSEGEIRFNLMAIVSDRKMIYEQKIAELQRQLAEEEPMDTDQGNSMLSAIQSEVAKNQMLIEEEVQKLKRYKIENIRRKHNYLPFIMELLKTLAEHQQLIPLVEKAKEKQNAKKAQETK
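Test system – human UCH37 enzyme supplied as purified proteasome complex · Incubation – 30 min preincubation with enzyme, 25 min cleavage at room temperature · Detection – AMC fluorescence from Ub-AMC cleavage, excitation 355 nm, emission 460 nm · Benchmarks – no-proteasome wells (full inhibition) and compound-free wells (no inhibition)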
Bfl-1 A1 inh – inhibitors of the anti-apoptotic protein A1, read as caspase activation; 330,000 compounds, 0.066% hits; MEF A1-2A-BIM cells, Caspase-Glo 3/7 luminescence, 3 h; percent of clofoctol response, vehicle zero; caspase activation, % (test concentration not listed);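 active means over half of replicate activation scores above 10%, or exactly half above 10 with the replicate mean above 10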;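 further: wells of about 30 µL received 50 nL stock; many hits fall short of the cut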
Ecoli rRNA inh OD600 – recorded beside Ecoli rRNA inh, whose call it bears; OD600 change, %; measured here: OD600 growth;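 optical density of the mix in the first replicate; 0 = DMSO median and -100 = no signal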
Ecoli rRNA inh RFP – further read-out of Ecoli rRNA inh, marked with its call; RFP signal change, %; measured here: RFP humanized mutant strains;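 first replicate; 0 = DMSO median and -100 = no signal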
Starred values were filed as active, the others as inactive; i = inactive; · = no result given.

item	Molecule	Beta apoptosis	E coli growth	AF4-AF9 inh	T cruzi inh	FGF22 binding	Ecoli rRNA inh	Ecoli rRNA inh OD600	Ecoli rRNA inh RFP	UCH37 inh	Bfl-1 A1 inh
1	CCCCC(=O)Nc1ccc2c(c1)oc1ccccc12	4	0.74	·	21	·	·	·	·	0.3	-1.2
2	COc1ccc(OC)c(C2CC(=O)NC(SC)=C2C#N)c1 (stereo not given)	-11	0.71	4.9	-9	i	1	1	-0.5	4.8	0.1
3	CSc1sc(C(=O)NNC(C)=O)c2c1C1(CCC2)SCCS1	1	0.68	5.1	11	i	·	·	·	5.0	0.0
4	COc1ccc(N(CC(=O)NCc2ccccc2C)S(=O)(=O)c2ccccc2[N+](=O)[O-])c(OC)c1	7	0.7	3.5	28	·	-17	-13	5.4	1.4	-0.7
5	Cc1ccc(C)c(NC(=S)N/N=C2/CCCCc3ccccc32)c1	20	·	2.9	39	i	·	·	·	·	3.0
6	O=C(Nc1ccc2c(c1)OCO2)C1CCN(C(=O)c2ccc(Br)cc2)CC1	9	0.7	-0.3	-7	i	0	8	0.7	-1.6	0.7
7	COc1ccc(C(=O)COC(=O)c2ccn(C)n2)cc1	-4	0.65	-11	-5	i	10	9	-1.8	3.6	-5.2
8	CCC1(c2ccc(F)cc2)NC(=O)N(CC(=O)N(CCC#N)c2ccccc2)C1=O (stereo not given)	-4	0.7	1.6	-2	i	2	-3	-1.2	1.3	0.7
9	COc1cccc(C2c3[nH]c4ccccc4c3C[C@H]3C(=O)N(c4ccccc4C(=O)NCCCN4CCOCC4)C(=O)N23)c1 (stereo not given in full)	·	0.74	6.3	24	i	·	·	·	3.6	0.3
10	CCCNC(=O)C(Cc1cccc(Cl)c1)NC(=O)c1ccccc1 (stereo not given)	-9	0.73	-11	·	i	1	5	0.7	0.6	-0.4
11	COc1ccccc1NC(=O)Nc1ccc(-n2ccc(C(F)(F)F)n2)cc1	13	0.66	1.1	12	i	-16	-58	13	2.6	-7.1
12	COC(=O)NNC1=CC(=O)CC(C)(C)C1	-11	0.6	-15	1	i	6	7	-0.5	0.4	-1.1
13	Cc1cccc(C)c1OCc1nnc(SCC(=O)Nc2ccc(N3CCOCC3)cc2)o1	4	0.73	-1.8	-5	i	6	5	-2.0	4.5	0.3
14	COc1ccc(-c2cc(C(=O)N(C)CC(=O)Nc3cccc(F)c3)c3ccccc3n2)cc1	0	0.66	-0.1	18	i	3	9	1.7	-104	-0.1
15	CCOC(=O)N1C2=NC(C(=O)OC)=C(C(=O)OC)[C@@H]3Nc4ccccc4[C@]23C[C@H]1C(=O)OC	1	·	-1.8	-12	i	3	16	1.3	4.3	-1.1
16	N#CC1=CN(Cc2ccccc2)C=C(/C=N/Nc2ccccc2)C1	3	·	2.7	-14	i	1	8	5.5	·	1.0
17	Cc1cccc(NC(=O)CN2CCc3cc4c(cc3C2C)OCCCO4)c1 (stereo not given)	-10	0.66	13	4	i	-6	-26	-1.0	1.7	-2.7
18	CCC(=O)Nc1ccc(S(=O)(=O)N2CCN(c3ccc(F)cc3)CC2)cc1	-3	0.69	·	7	·	·	·	·	0.6	0.9
19	CCCN(CC1CC1)C(=O)CCc1nnc(CCc2c[nH]c3ccccc23)o1	-15	0.7	-0.2	-6	i	-9	-2	1.8	2.7	-0.1
20	Cc1c(C2(c3c(C)n(C)n(-c4ccccc4)c3=O)C(=O)Nc3ccc(F)cc32)c(=O)n(-c2ccccc2)n1C	-4	0.75	·	-8	·	·	·	·	-0.8	-0.2
21	Cc1cc(C)c(S(=O)(=O)N2CCCCC2)c(C)c1N(C)S(=O)(=O)c1ccc(Cl)cc1	8	·	·	30	·	·	·	·	-0.2	0.1
22	Oc1ccccc1N1CCN(Cc2ncc(-c3ccccc3)o2)CC1	-3	0.65	-1.7	3	i	-4	-11	-4.8	4.6	0.4
23	Cc1cc(F)ccc1Oc1cc(NN2CCCCC2)c([N+](=O)[O-])cc1[N+](=O)[O-]	2	0.71	2.2	0	i	2	7	-5.3	4.9	-0.5
24	CN(C)c1cccc(C(=O)N2CCC(n3nccc3NC(=O)C3CCOC3)CC2)c1 (stereo not given)	-13	0.67	5.8	3	i	7	10	-1.1	3.2	-0.9
25	COCCN(C(=O)CSc1nc2ccccc2c(=O)n1CC(C)C)c1c(N)n(Cc2ccccc2)c(=O)[nH]c1=O	-8	0.68	0.1	-6	i	4	-5	-0.7	5.4	-0.9
26	C=CCn1c(CCC(O)CCCCC)n[nH]c1=S (stereo not given)	3	0.66	-1.6	16	i	14	6	1.0	3.7	0.3
27	Cc1ccc(NC(=O)Cn2nnc(C(=O)NCCc3ccccc3)c2N)c(C)c1	·	0.7	·	-18	·	·	·	·	3.8	0.4
28	O=C(Nc1ccccc1C(=O)O)C1=NN=CC1	-7	0.69	-1.7	-1	i	-16	-7	3.1	2.7	-0.4
29	Cc1ccccc1NC(=O)Cn1c(C)nc2ccc(NC(=O)C3CC3)cc2c1=O	-2	0.69	2.0	-1	i	9	5	-7.3	0.3	0.8
30	CC(C)N(C(=O)Cn1cnc2c(cnn2-c2ccccc2Cl)c1=O)C(C)C	1	0.74	1.3	-2	i	2	0	-8.8	-0.1	0.1
31	COc1ccccc1Nc1ncnc2sccc12	6	0.67	-2.0	-2	i	5	12	1.1	-1.4	-1.4
32	O=[N+]([O-])c1ccc(N=Nc2c(Cl)cc(O)cc2Cl)cc1	122*	0.4*	52*	35	i	-5	-5	1.1	5.1	-8.8
33	CCCCN(C(=O)C1CC(=O)N(Cc2ccc(C)cc2)C1)c1c(N)n(CC(C)C)c(=O)[nH]c1=O (stereo not given)	-4	0.69	-0.8	0	i	10	11	-3.4	5.2	0.7
34	COc1ccccc1NC1C=CS(=O)(=O)C1 (stereo not given)	-4	0.65	·	-14	·	·	·	·	1.9	0.4
35	COc1cc(/C=N/NC(=S)NC2CC3CC2C2C=CCC32)ccc1O (stereo not given)	5	·	7.5	-20	i	-50	-53	-13	·	0.4
36	Cc1cc(C)c(S(=O)(=O)Cc2ccccc2)c(=O)[nH]1	·	0.69	1.4	-7	·	23	6	2.9	1.3	0.0
37	CCN(Cc1ccncc1)C(=O)c1cc(COc2ccc(F)cc2F)on1	·	0.67	0.5	16	i	-1	2	-2.5	-0.4	·
38	Cc1ccc(S(=O)(=O)NCCCCCC(=O)Nc2ccccc2C)cc1	-3	0.69	0.1	13	i	·	·	·	0.9	-0.3
39	Cc1cc(N)n2nc(C)c(-c3ccccc3)c2n1	-3	0.65	·	6	·	·	·	·	-6.9	0.4
40	COc1ccc(-n2cnnc2SCC(=O)NC2CCS(=O)(=O)C2)cc1 (stereo not given)	-1	0.7	·	-18	·	·	·	·	-0.1	0.5
41	CCCC1CC(C)(/C(C)=N\NC(N)=S)OC1=O (stereo not given)	2	·	-2.3	-20	·	·	·	·	·	-0.3
42	O=C(CCC(=O)N1CCc2ccccc2C1)N1CCN(S(=O)(=O)c2ccccc2)CC1	-8	0.73	·	7	·	·	·	·	14	0.5
43	O=c1c2ccccc2n(CC(O)CN2CCOCC2)c2ccccc12 (stereo not given)	-5	0.72	-2.9	4	i	-4	0	0.7	-130	1.2
44	COc1cc(NC(=O)c2ccccc2)cc(OC)c1	-1	0.72	·	9	·	·	·	·	0.6	-12
45	CCc1ccc(NC(=O)COC(=O)c2nc3nc(C)cc(C)n3n2)cc1	-5	0.62	-0.1	·	i	13	12	0.1	0.3	0.8
46	CN(CC(=O)Nc1cccc(F)c1)C(=O)CCC1CCCCC1	5	0.7	-2.3	3	i	4	5	-2.2	0.0	1.4
47	CNC(=S)NNC(=O)c1c(C)nc2cc(C)ccn12	-1	0.66	-1.5	-9	i	7	9	1.0	0.5	-0.7
48	O=C1OC(c2ccccc2)Cc2cc(C(=O)N3CCN(c4ccc(F)cc4)CC3)ccc21 (stereo not given)	·	0.68	0.6	·	i	-29*	-20*	-2.2*	-1.9	·
49	COc1cccc2cc(C(=O)OCC(=O)N3CC(C)OC(C)C3)c(=O)oc12 (stereo not given)	0	0.69	-3.8	·	i	1	12	-1.6	2.2	0.0
50	COc1ccc(OC)c2[nH]c(=O)c(CCNC(=O)C(C)(C)C)cc12	-8	0.7	7.7	-15	i	-2	-3	0.2	-1.0	0.2
51	CCOC(=O)c1c(C)c(C(=O)Nc2cc(F)ccc2F)c(C)n1C	-7	0.75	2.9	-8	i	·	·	·	4.5	-0.6
52	C[N+](C)(CC#Cc1ccccc1)CC(=O)c1ccc(Cl)cc1	3	0.69	-1.0	0	i	-11	-7	-23	5.5	1.1
53	CCOC(=O)c1c(C)[nH]c(N=Nc2ccc(C)cc2)c1C	6	0.65	·	32	·	·	·	·	4.6	0.0
54	O=C(c1ccccc1)c1ccc(OCC(O)CN2CCCC2)cc1 (stereo not given)	-3	0.67	3.6	9	i	12	5	5.9	1.5	0.6
55	CCc1ccc(NC(=O)NNC(=O)c2ccc3ccccc3c2O)cc1	-4	0.7	-5.0	-10	i	-22	-18	1.3	-287	0.8
56	Cc1ccc(/C=N/N2CCN(Cc3ccc(C)cc3)CC2)cc1	-5	·	1.3	-9	i	16	11	-1.0	·	-0.7
57	O=C(COc1ccc2ccccc2c1)NCC1CCCO1 (stereo not given)	-3	0.71	-0.9	-8	i	4	4	-1.4	6.8	-0.3

Reprinted: entries 1 to 2
item	Molecule	Beta apoptosis	E coli growth	AF4-AF9 inh	T cruzi inh	FGF22 binding	Ecoli rRNA inh	Ecoli rRNA inh OD600	Ecoli rRNA inh RFP	UCH37 inh	Bfl-1 A1 inh
1	CCCCC(=O)Nc1ccc2c(c1)oc1ccccc12	4	0.74	·	21	·	·	·	·	0.3	-1.2
2	COc1ccc(OC)c(C2CC(=O)NC(SC)=C2C#N)c1 (stereo not given)	-11	0.71	4.9	-9	i	1	1	-0.5	4.8	0.1

A portion of the library, so the mix of outcomes need not match the whole.
